# HNF4A DNA FP = change in binding of human HNF4 alpha to DNA. P41235. hit rate 0.3% among 360,000. HNF4a-FITC DNA binding, fluorescence polarization, 1 h. activity change, % at 10 µM. AID 1224865; in the data active = activity change above about 30%, passing the limit was not always enough;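 note: controls were the assay level and a saturating level of protein; the project sought stronger binding though the title names inhibitors; some compounds called inactive have numbers as strong as hits; positive values seem to mean higher polarization but the record does not say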
# Target sequence (P41235 whole entry, looked up): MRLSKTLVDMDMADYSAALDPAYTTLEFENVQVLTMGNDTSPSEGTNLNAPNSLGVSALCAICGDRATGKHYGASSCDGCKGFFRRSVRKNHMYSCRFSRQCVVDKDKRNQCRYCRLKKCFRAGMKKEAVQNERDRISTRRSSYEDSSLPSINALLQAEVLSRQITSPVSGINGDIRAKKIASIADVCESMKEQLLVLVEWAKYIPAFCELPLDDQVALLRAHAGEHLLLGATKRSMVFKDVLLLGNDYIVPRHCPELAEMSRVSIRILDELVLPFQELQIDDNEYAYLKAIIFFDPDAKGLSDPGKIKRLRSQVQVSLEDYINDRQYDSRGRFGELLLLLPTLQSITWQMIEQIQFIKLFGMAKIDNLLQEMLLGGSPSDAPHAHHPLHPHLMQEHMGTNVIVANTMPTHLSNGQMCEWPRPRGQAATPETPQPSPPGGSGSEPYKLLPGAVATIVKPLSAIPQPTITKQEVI
# UCH37 inh = inhibitors of human deubiquitinating enzyme UCH37. Q9Y5K5. inhibition, % (test concentration not listed). purified proteasome/UCH37, Ub-AMC cleavage fluorescence. hit rate 0.33% among 330,000;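 active = mean of two replicates above 20%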;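 note: 0% = compound-free wells with enzyme and 100% = wells lacking proteasome; stock transfer was 100 nL into about 20 µL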
#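 Material: human UCH37 enzyme supplied as purified proteasome complex / Amount: 0.15 nM proteasome as dispensed / Buffer or medium: pH 7.4 Tris-HCl (50 mM) with ovalbumin, ATP-MgCl2, DTT / Times: preincubation 30 min, reaction 25 min, room temperature / Technique: AMC fluorescence from Ub-AMC cleavage, excitation 355 nm, emission 460 nm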
# Beta2AR agonist = agonists of human beta-2 adrenergic receptor inducing internalization. hit rate 0.43% among 340,000. Am2.2-beta2AR cells, FAP receptor internalization, flow cytometry; reference of the scale not given here. response, % (test concentration not listed). AID 504454;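 active = response above a set limit, near 3 SD of response in nonfluorescent compounds, cut at about 42% in these data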;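 note: stock transfer was 100 nL into about 11 µL; a reference agonist was the positive control; negative values mostly stem from fluorescent compounds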
# Target sequence (P07550 whole entry, looked up): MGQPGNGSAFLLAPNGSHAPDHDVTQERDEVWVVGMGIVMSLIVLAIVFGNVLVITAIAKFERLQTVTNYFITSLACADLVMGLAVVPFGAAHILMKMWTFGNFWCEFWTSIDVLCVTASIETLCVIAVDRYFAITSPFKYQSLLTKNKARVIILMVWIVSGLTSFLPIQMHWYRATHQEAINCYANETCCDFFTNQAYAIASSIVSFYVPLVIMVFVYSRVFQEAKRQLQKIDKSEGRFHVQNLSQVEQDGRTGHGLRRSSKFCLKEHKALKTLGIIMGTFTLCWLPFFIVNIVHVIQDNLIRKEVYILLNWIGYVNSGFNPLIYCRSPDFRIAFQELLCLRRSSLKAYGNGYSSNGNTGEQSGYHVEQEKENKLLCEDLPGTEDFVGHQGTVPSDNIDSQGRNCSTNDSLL
# ALR H2O2 inh = inhibitors of human sulfhydryl oxidase ALR; P55789; purified ALR, DTT oxidation, H2O2 HRP-luminol luminescence; inhibition, % (concentration not given with the values); hit rate 3.8% among 290,000; AID 485317;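 active = mean and each replicate at 75% or more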;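 note: stock transfer was 7.5 nL into about 7.5 µL; 0% = neutral wells and 100% = wells with inactivated enzyme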
# Target sequence (P55789 whole entry, looked up): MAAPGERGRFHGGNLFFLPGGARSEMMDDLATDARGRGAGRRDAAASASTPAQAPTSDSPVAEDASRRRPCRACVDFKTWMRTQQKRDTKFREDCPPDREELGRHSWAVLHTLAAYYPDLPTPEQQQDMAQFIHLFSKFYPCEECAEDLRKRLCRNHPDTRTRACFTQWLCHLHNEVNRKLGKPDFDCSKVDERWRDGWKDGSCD
# FGF22 binding = shifts melting point of recombinant human FGF22. recombinant FGF22 thermal shift, SYPRO orange fluorescence; percent of sucrose octasulfate shift, DMSO zero. calls only at 9.99 µM. hit rate 1.5% among 340,000. AID 651658;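 active = melting point raised past a set limit in the mean and every replicate; three in four hits are not shown here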
# E coli growth = inhibitors of Escherichia coli growth. AID 1053175. OD600, 23 h; active compounds read low. hit rate 0.21% among 330,000. OD600 absorbance (no concentration beside the values);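 active = OD600 absorbance below the run mean of sample wells minus 3.6 SD, in any replicate, cut at about 0.56 in these data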;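 note: stock transfer was 300 nL into about 60 µL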
# rRNA inh HTS = inhibits bacterial ribosomal RNA function over humanized ribosomes | hit rate 1.6% among 350,000 | E. coli WT GFP vs humanized-ribosome RFP mutants, fluorescence, 24 h; active compounds read low; DMSO median 0, no signal -100 | GFP signal change (wild-type ribosome), % (concentration not given with the values);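 active = significant combined selectivity score with lowered wild-type GFP, culture density cut under 30%, mutant RFP and density less affected; inactive = any of these conditions unmet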; note: one replicate is shown; some compounds called inactive have numbers as strong as hits
# rRNA inh HTS OD600 = also measured in rRNA inh HTS; calls as there; OD600 change, %; measured here: OD600 growth;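 optical density of the mix in the first replicate; 0 = DMSO median and -100 = no signal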
# rRNA inh HTS RFP = recorded beside rRNA inh HTS, whose call it bears; RFP signal change, %; measured here: RFP humanized mutant strains;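 first replicate; 0 = DMSO median and -100 = no signal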
# * marks the source's active call; other numbers are inactive results; i = inactive; . = not tested or not shown. Only part of the results is shown; count on the stated rates, not on these rows.
HNF4A DNA FP,UCH37 inh,Beta2AR agonist,ALR H2O2 inh,FGF22 binding,E coli growth,rRNA inh HTS,rRNA inh HTS OD600,rRNA inh HTS RFP,Molecule
4.5,.,9,-3,i,.,18,1,-4.2,O=C(N/N=C/c1ccco1)c1ccn[nH]1
-0.4,6.1,-4,-6,.,0.72,.,.,.,Cc1ccc(S(=O)(=O)NCCNc2ccc([N+](=O)[O-])cc2C(F)(F)F)cc1
-23,0.0,-7,61,i,0.69,6,1,-2.6,O=c1c2ccccc2c(C=Nc2ccc(O)cc2)c(O)n1Cc1ccccc1
-3.3,.,1,-2,.,.,.,.,.,Fc1c(F)c(C(F)(F)F)c(F)c(F)c1N/N=C\c1cccs1
5.2,-2.8,-4,.,i,.,9,7,-1.8,COc1cc(/C=C/C(=O)O[C@H]2[C@H](O[C@@H]3O[C@@H](C)[C@H](O)[C@@H](O)[C@H]3O)[C@@H](O)[C@H](OCCc3ccc(O)c(OC)c3)O[C@@H]2CO)ccc1O
-0.3,3.5,3,-2,.,0.71,.,.,.,Cc1nc2ccc(NC(=O)c3cccc(S(=O)(=O)N(C)c4ccccc4)c3)cc2s1
0.4,4.2,1,5,i,0.69,-12,-5,0.9,CCSc1nnc(NC(=O)[C@@H](NC(=O)c2ccccc2)C(C)C)s1
-1.1,4.2,9,-1,i,0.68,-3,-8,-0.4,CCN(CC)C(=O)c1cccc(NC(=O)c2ccccc2OCc2c(C)noc2C)c1
-2.7,3.1,4,34,i,0.71,-1,2,2.6,CCN(Cc1ccc2c(c1)OCO2)C(=O)CSc1nc(C)nc2sc(C)c(C)c12
-2.0,5.8,-8,.,i,0.69,9,17,0.0,NC(=O)C1CCCN(CC(O)COCc2ccc(Cl)cc2)C1 (stereo unspecified)
1.6,3.5,-13,-2,i,0.68,-35,-34,-5.4,O=C(Oc1c(CN2CCOCC2)cc(Cl)c2cccnc12)c1ccccc1Br
0.5,1.1,-19,-2,i,0.66,3,4,-3.4,Cc1ccc(NC(=O)/C(C#N)=C/c2ccsc2)c(C)c1
-1.5,.,7,.,i,.,8,8,1.0,CCCC(=O)NC1CCc2cc(OC)c(OC)c(OC)c2-c2ccc(OC)c(=O)cc21 (stereo unspecified)
2.5,-3.5,2,-5,i,0.67,11,14,-1.3,CN(CCOc1ccc(Cl)cc1)C(=O)C1=CC=CN2CCS(=O)(=O)N=C12
-0.4,-0.4,4,-9,i,0.7,.,.,.,Cc1cccc(NC(=O)CN2CCN(C(=O)c3c(C)nn(Cc4ccccc4)c3C)CC2)c1C
-0.4,1.8,17,44,.,0.64,.,.,.,C=CCn1c(C(C)NC(=O)c2ccccc2)n[nH]c1=S (stereo unspecified)
-1.5,1.4,-1,-13,.,0.68,.,.,.,C=CCOc1c(CNc2ccc(S(N)(=O)=O)cc2)cccc1OC
4.0,-0.8,9,-2,i,0.7,6,7,-1.5,COc1ccc(-n2cnnc2SCC(=O)Nc2cccc(S(N)(=O)=O)c2)cc1
0.2,0.9,10,-10,i,0.71,6,7,2.2,Cc1cc(OCC(=O)N(Cc2ccco2)c2c(N)n(Cc3ccccc3)c(=O)[nH]c2=O)ccc1Cl
-4.2,0.3,1,0,i,.,10,9,0.1,C#CCOCCOCCOCCNc1nc(N2CCOCC2)nc(N2CCN(C(=O)[C@H](Cc3ccc(O)cc3)n3cc([C@@H](N)CC(C)C)nn3)CC2)n1
-6.4,.,.,.,i,.,0,-5,-6.1,Cc1cccc(C)c1C(O)c1ncc(-c2ccc(Cl)cc2)[nH]1 (stereo unspecified)
-0.8,1.5,-2,-14,i,0.63,3,12,-2.1,CC1(c2ccc([N+](=O)[O-])cc2)NC(=O)N(CC(=O)Nc2cccnc2Cl)C1=O (stereo unspecified)
2.4,2.6,2,97*,.,0.72,-11,-8,-1.2,CC(=O)NS(=O)(=O)c1ccc(NC(=O)c2cccc(S(=O)(=O)N3CCc4ccccc43)c2)cc1
-1.8,3.4,-3,-4,i,0.64,2,18,6.2,CCOC(=O)CCN1C(=O)c2ccccc2Sc2ncccc21
0.4,4.0,-3,0,i,0.66,.,.,.,CNCCC(Oc1ccccc1OC)c1ccccc1 (stereo unspecified)
0.5,1.4,-5,-12,i,0.69,3,0,0.6,CN(C)C(=O)c1cc(C(=O)c2ccc(F)cc2F)c[nH]1
2.6,0.6,-8,-5,.,0.65,.,.,.,COc1cc(OC)cc(C(=O)N[C@H](C(=O)OCC(=O)c2ccc3c(c2)NC(=O)CO3)C(C)C)c1
0.0,-8.1,11,-3,i,0.69,-4,12,-2.4,COc1ccc(CCn2c(=N)c(C(=O)NC3CCCC3)cc3c(=O)n4cccc(C)c4nc32)cc1
2.3,1.5,-4,5,i,0.67,-8,-14,-3.7,COc1cccc(OCC(Cn2cnc3ccccc32)OC(C)=O)c1 (stereo unspecified)
-2.2,-0.1,3,88*,.,0.71,.,.,.,O=C(NNS(=O)(=O)c1cc(Cl)cc(Cl)c1)c1sccc1-n1cccc1

# Some of the entries so far, with two lines to a compound:
# Second line of a record – HNF4A DNA FP | UCH37 inh | Beta2AR agonist | ALR H2O2 inh | FGF22 binding | E coli growth | rRNA inh HTS | rRNA inh HTS OD600 | rRNA inh HTS RFP
> COc1ccc(-n2cnnc2SCC(=O)Nc2cccc(S(N)(=O)=O)c2)cc1
 : 4.0 | -0.8 | 9 | -2 | i | 0.7 | 6 | 7 | -1.5
> Cc1ccc(NC(=O)/C(C#N)=C/c2ccsc2)c(C)c1
 : 0.5 | 1.1 | -19 | -2 | i | 0.66 | 3 | 4 | -3.4
> COc1cccc(OCC(Cn2cnc3ccccc32)OC(C)=O)c1 (stereo unspecified)
 : 2.3 | 1.5 | -4 | 5 | i | 0.67 | -8 | -14 | -3.7
> CN(CCOc1ccc(Cl)cc1)C(=O)C1=CC=CN2CCS(=O)(=O)N=C12
 : 2.5 | -3.5 | 2 | -5 | i | 0.67 | 11 | 14 | -1.3
> CC(=O)NS(=O)(=O)c1ccc(NC(=O)c2cccc(S(=O)(=O)N3CCc4ccccc43)c2)cc1
 : 2.4 | 2.6 | 2 | 97* | . | 0.72 | -11 | -8 | -1.2

# (continued)
HNF4A DNA FP,UCH37 inh,Beta2AR agonist,ALR H2O2 inh,FGF22 binding,E coli growth,rRNA inh HTS,rRNA inh HTS OD600,rRNA inh HTS RFP,Molecule
5.9,3.4,-21,-4,i,0.71,-10,-17,6.9,COCCCNC(=O)COc1ccc2oc3c(c2c1)CCCC3
4.8,2.6,-10,-4,i,0.69,-6,0,-1.6,Cc1cccc(NC(=O)C2CCC(CNC(=O)[C@@H]3Cc4ccccc4CN3)CC2)c1 (stereo partly specified)
0.7,0.9,-8,.,i,0.67,4,13,-2.7,O=C(O)c1ccc(N=C2c3ccccc3-c3ccccc32)cc1
0.2,6.2,4,-4,i,0.67,11,10,1.4,Cc1ccc(C(=O)Oc2cc(C)[nH]c(=O)c2[N+](=O)[O-])cc1
-0.9,0.8,6,-8,.,0.66,.,.,.,COc1cccc(-c2cc(C(=O)N3CCCCC3C)no2)c1 (stereo unspecified)
-0.3,0.1,-4,98*,i,.,-20,-28,-4.3,CC(=O)Nc1ccc(SC[C@H](Cc2ccccc2)N2CC[C@@H](C)CCC2=O)cc1
-0.5,0.9,3,-28,i,0.67,-9,-9,-6.2,NNc1ccc(Cc2ccc(Cl)cc2Cl)nn1
3.5,0.2,8,-4,i,0.59,0,-3,0.7,CCCn1nnc(NC(=O)c2ccc(-c3ccccc3)cc2)n1
-3.2,4.8,8,-2,i,0.72,-1,-9,0.2,COc1ccc(OC)c(NC(=O)CS(=O)(=O)Cc2nc(-c3ccccc3C)oc2C)c1
5.3,2.3,-1,-2,.,0.69,.,.,.,Cc1ccnc(NC(=O)c2ccc(Cl)c(NC(=O)c3ccccc3C)c2)c1
-0.6,-13,3,-18,i,0.69,2,6,1.2,COc1ccccc1-n1c(SCC(=O)Nc2ccc(NC(C)=O)cc2)nc2c([nH]c3ccccc32)c1=O
-1.5,1.4,1,.,.,0.72,.,.,.,O=C(Nc1ccccc1C(=O)N1CCOCC1)c1ccco1
0.1,0.3,18,3,.,0.68,.,.,.,COc1ccc(C(=O)Nc2ccc(SC(F)F)cc2)cc1
2.2,1.5,1,81*,.,0.71,.,.,.,Oc1ccc(-c2onc3ccc(Cl)cc23)cc1
-6.2,5.4,-1,.,i,0.65,8,8,1.8,COC(=O)[C@H](Cc1c[nH]c2ccccc12)NC(=O)Nc1ccccc1OC
2.3,5.8,1,-2,.,0.67,.,.,.,CC(C)CCNC(=O)CCS(=O)(=O)c1cccc2nonc12
-1.9,1.2,11,.,i,0.63,.,.,.,CC(=O)c1cc(C)c(OC(=O)c2ccccc2)c(C)c1
-3.2,.,1,.,i,.,15,13,2.2,N#CC12C(=O)NC(=O)C1(C#N)C21CCCC1 (stereo unspecified)
2.5,-0.6,-1,-5,.,0.7,.,.,.,Cc1ccc(S(=O)(=O)N2CCC(C(=O)N3CCC[C@H]3C(=O)NC3CCS(=O)(=O)C3)CC2)cc1 (stereo partly specified)
-3.8,2.9,0,-22,.,0.73,-22*,-18*,-1.4*,CSc1nc(C)c(CCOCc2ccc(F)cc2)c(=O)[nH]1
-0.2,-69,-8,.,.,0.69,.,.,.,COc1ccc2oc(=O)cc(C)c2c1
3.2,1.0,15,0,.,0.71,.,.,.,CCOC(=O)C1CCCN(Cc2nc(N)nc(Nc3ccc(Cl)cc3)n2)C1 (stereo unspecified)
1.7,5.2,-12,38,i,0.72,13,12,1.2,COc1ccc(N2CCN(Cc3nc4c(c(=O)[nH]c(=O)n4C)n3CC(C)=O)CC2)cc1
0.4,.,-2,.,i,.,-39,-39,-8.8,O=C1NN(c2ccc(Br)cc2)C(=O)/C1=C\c1ccc(O)cc1O
0.5,-1.1,-1,.,.,0.71,-1,-2,2.5,O=C(CCNS(=O)(=O)c1ccccc1C(F)(F)F)NC1CCCCCC1
-0.3,1.4,13,0,.,0.69,.,.,.,O=C(Cn1nnc(-c2cccs2)n1)OC1CCCCC1
4.4,1.1,2,-2,.,0.69,3,4,2.4,CCOc1ccc(NS(=O)(=O)c2cc3c4c(c2)CCN4C(=O)CC3)cc1
-2.4,1.6,6,-10,i,0.62,.,.,.,O=C(NCCc1cccnc1)C1CCC(=O)N(CCc2cccc(F)c2)C1 (stereo unspecified)
-4.3,6.7,7,98*,.,0.68,-41,-47,-7.7,O=C(CCN1C(=O)/C(=C/c2ccccc2Cl)SC1=S)Nc1ccccc1C(=O)O
-0.1,3.4,1,-8,i,0.64,4,4,1.2,CC1(C)CC(NC(=O)c2ccccc2F)CC(C)(C)N1
-2.7,2.0,0,-30,.,0.68,9,6,1.7,CN1CCCC2(CCCN(Cc3nc(Cc4cccc(C(F)(F)F)c4)no3)C2)C1 (stereo unspecified)
0.7,2.0,4,19,i,0.69,14,8,10,O=C1CCCC(=O)C1Sc1ccc(Cl)cc1
0.5,3.5,-3,36,i,0.64,-43*,-32*,-7.1*,Cc1nc(N2CCOCC2)nc(Oc2ccccc2)c1[N+](=O)[O-]
-0.7,.,6,-1,.,.,.,.,.,COc1cc(/C=N\NC(=O)c2sc(N)nc2C)cc(OC)c1OC
2.4,4.1,2,.,i,0.67,3,3,-0.9,O=C(c1ccc(Cl)cc1)n1cnc2ccccc21
-8.5,-2.0,-7,-26,i,0.74,7,11,1.6,Cc1ccccc1N1CC(C(=O)Nc2nnc(SCc3cccnc3)s2)CC1=O (stereo unspecified)
4.4,-1.5,-3,.,.,0.72,.,.,.,O=C(Cc1ccc(Br)cc1)N1CCN(c2ccccc2O)CC1
-1.4,-4.4,1,-20,.,0.76,.,.,.,Cc1cccc(Cn2c(N3CCc4ccccc4C3)nc3c2c(=O)[nH]c(=O)n3C)c1
-4.8,-0.8,-2,5,i,0.71,9,7,3.9,CC(OC(=O)c1ccc2ccccc2n1)C(=O)c1ccccc1 (stereo unspecified)
